Source: PubChem
gsp agonist: agonists of gsp mutant (McCune-Albright syndrome); gsp mutant cells, cAMP HTRF, 30 min; control for the full effect not named in the record; Potency, µM (highest dose often 76.9 µM), inactives show top-dose activation (cAMP increase), most hits filed as activators; hit rate 0.13% among 340,000; active = well fitted activation curve with a large enough effect; inconclusive = small, poorly fitted or top-dose-only effect, or another doubt; inactive = no such curve, though single readings can be large or run the other way; cell line not stated here;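 further: phosphodiesterase inhibitor Ro 20-1724 added with compounds to block cAMP breakdown; potency means the concentration at half of the fitted maximal effect; nearly all actives have a fitted effect of over 60% in size; about a fifth of the inactives were tested at one dose only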
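Cells stably selected in G418 were plated at 2000/well, grown 16-24 hr, then given compounds in DMSO with the PDE inhibitor […] (300 uM solution added) for 30 min at 37C; cAMP was read by HTRF.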
D2 agonist: agonists of human D2 dopamine receptor (beta-arrestin) | DiscoveRx PathHunter D2 beta-arrestin, luminescence, 90 min; 100% = 57 uM dopamine signal | activation, % (test concentration not listed) | hit rate 0.084% among 360,000 | AID 624465; in the data active = activation above about 40%; inconclusive = about 15% to 40%; inactive = below about 15%; further: compound concentration not given in the record; the text of the record calls up to 30% inactive
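DiscoveRx PathHunter D2 beta-arrestin cells (2,100/well) attached overnight, then compound-stimulated 90 min at 37 C in HBSS/10 mM HEPES/0.1% Tween-20 buffer; beta-galactosidase complementation read by luminescence after 1 h at ambient temperature. Dopamine 57 uM final (EC100) as control.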
D2 potentiator: human D2 receptor positive allosteric modulation | AID 624464 | hit rate 0.23% among 360,000 | potentiation, % (concentration not given with the values) | DiscoveRx D2 beta-arrestin cells, luminescence, 90 min; 100% = 57 uM dopamine signal; active = potentiation of 50% or more; inconclusive = 30% to 50%; inactive = 30% or less;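 further: compound concentration not given in the record; tested on top of an EC20 dose of dopamine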
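PathHunter beta-arrestin assay in DiscoveRx D2 cells. Compounds were added with an EC20 of dopamine (50 nM final) for 90 min at 37 deg C. Luminescence was read 1 h after detection reagent, with 57 uM dopamine as the EC100 control.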
gsp antag: antagonists of gsp mutant (McCune-Albright syndrome); gsp-mutant cells, cAMP HTRF, 30 min; control for the full effect not named in the record; Potency, µM (doses to about 76.9 µM), for the others: at the top dose activity change, negative = inhibition, usual class: inhibitors; AID 624288; hit rate 0.4% among 340,000; active = falling curve of any shape with a large fitted effect; inconclusive = falling curve, mostly with a smaller effect; inactive = flat or rising curve; cell line not stated here;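 further: intracellular cAMP measured with PDE inhibitor Ro 20-1724 present during compound exposure; potency means the concentration at half of the fitted maximal effect; on the % scale 0 is the no-effect control and ±100 the full control effect; nearly all actives have a fitted effect of over 65% in size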
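G418-selected cells were plated in DMEM/10% FBS for 16-24 h at 37C, then treated with compounds plus the PDE inhibitor […] (300 uM solution added) for 30 min at 37C. Intracellular cAMP was measured by HTRF after 30 min lysis at room temperature.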
Six1-Eya2 inh: blocks human Six1 binding to Eya2. AlphaScreen GST-Six1/His-Eya2 binding, biochemical; active compounds read low; control for the full effect not named in the record. hit rate 0.56% among 360,000. activity change, % (no concentration beside the values). AID 651725. Q15475+O00167; in the data active = activity change below about -65%; inconclusive = about -30% to -65%; inactive = above about -30%; further: on the % scale 0 is the no-effect control and ±100 the full control effect
Target sequence (O00167 whole entry, looked up): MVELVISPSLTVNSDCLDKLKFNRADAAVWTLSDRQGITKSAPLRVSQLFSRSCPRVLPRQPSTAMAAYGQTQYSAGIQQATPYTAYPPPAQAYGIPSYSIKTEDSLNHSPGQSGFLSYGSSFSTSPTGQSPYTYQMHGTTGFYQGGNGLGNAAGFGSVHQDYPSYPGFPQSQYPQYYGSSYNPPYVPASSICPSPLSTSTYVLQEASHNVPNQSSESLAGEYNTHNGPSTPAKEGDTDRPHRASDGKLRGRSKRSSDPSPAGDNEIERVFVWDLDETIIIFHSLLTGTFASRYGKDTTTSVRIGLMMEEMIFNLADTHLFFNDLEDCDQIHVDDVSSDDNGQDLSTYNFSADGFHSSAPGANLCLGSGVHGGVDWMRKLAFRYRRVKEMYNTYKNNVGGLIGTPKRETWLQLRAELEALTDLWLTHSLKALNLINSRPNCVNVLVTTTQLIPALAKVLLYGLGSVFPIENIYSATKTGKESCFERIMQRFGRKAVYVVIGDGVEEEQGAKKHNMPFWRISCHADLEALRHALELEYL
Target sequence (Q15475 whole entry, looked up): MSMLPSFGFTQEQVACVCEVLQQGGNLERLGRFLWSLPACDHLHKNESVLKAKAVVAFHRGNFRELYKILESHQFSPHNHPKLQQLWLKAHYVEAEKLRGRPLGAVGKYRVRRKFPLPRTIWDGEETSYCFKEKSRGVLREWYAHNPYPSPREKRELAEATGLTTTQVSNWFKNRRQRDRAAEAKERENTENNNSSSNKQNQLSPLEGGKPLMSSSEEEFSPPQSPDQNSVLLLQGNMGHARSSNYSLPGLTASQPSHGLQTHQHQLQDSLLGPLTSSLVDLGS
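AlphaScreen with GST-Six1 and His-Eya2 (5X mix: 250 nM and 500 nM), glutathione donor and nickel acceptor beads; buffer 50 mM Tris pH 8.0, 300 mM NaCl, 1 mM TCEP; 1 h at 37 C in the dark.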
CtBP-E1A inh: CtBP/E1A binding inhibition. AlphaScreen GST-E1A/His-CtBP binding, 1536-well; active compounds read low; control for the full effect not named in the record. activity change, % (concentration not given with the values). hit rate 0.49% among 340,000. AID 651724; in the data active means activity change below about -65%; inconclusive means about -30% to -65%; inactive means above about -30%; further: on the % scale 0 is the no-effect control and ±100 the full control effect
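GST-E1A and His-tagged CtBP (125 nM each as 5X stock) were preincubated with pin-transferred compound for 2 h at 37 °C in the dark, then glutathione donor and nickel acceptor beads were added for 1 h before AlphaScreen reading.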
The depositor's hits bear a star; ? = inconclusive; nt = not tested or not shown; [ ] = remark or other dose.

SMILES	gsp agonist	D2 agonist	D2 potentiator	gsp antag	Six1-Eya2 inh	CtBP-E1A inh
COc1ccc(C(=O)NCCn2cc(SCC(=O)NCC3CCCO3)c3ccccc32)cc1OC (stereo not drawn)	-10.6%	-0.7	-6.2	-3.4%	-13.2	-3.3
CC(C)NCC(=O)C12CC3CC(CC(C3)C1)C2	?	-5.7	-14.4	8.3%	1.8	nt
CCOC(=O)Cn1c(=O)oc2cc(S(=O)(=O)N3CCN(C(=O)OCC)CC3)ccc21	10.8%	0.6	-0.2	3.8%	-2.5	-3.6
Cc1onc(-c2c(F)cccc2Cl)c1C(=O)NCCO	-5.3%	4.5	0.7	4.2%	0.5	0.6
CCn1c(=O)c2cc(C(=O)NCc3cccs3)sc2c2ccccc21	-35.8%[inhibitor]	-8.2	-7.4	4.6%	1.8	-3.1
Cc1cccc(NC(=S)N2CCC(C(=O)c3ccc(F)cc3)CC2)c1	?	4.7	-9.2	2.2%	0.0	-0.4
COc1ccc(C2c3[nH]c4ccccc4c3CCN2CCCn2cccn2)c(F)c1 (stereo not drawn)	8.0%[15.4 µM]	-2.3	-4.5	-2.5%	-7.8	-15.4
COc1cc([N+](=O)[O-])cc(/C=N/N(CCC#N)C(C)=O)c1O	-6.8%	-5.9	-9.4	-18.6%	2.3	5.9
Cc1ccc(N2CC(C(=O)NCCS(=O)(=O)N3CCN(c4ccccc4)CC3)CC2=O)cc1C (stereo not drawn)	-61.9%[inhibitor]	4.6	-1.2	3.3%	1.3	0.3
CC(=O)c1ccc(OCc2cc(C(=O)N(C)CCN3CCOCC3)no2)cc1	?	-2.1	-1.0	-3.1%	0.7	-13.8
O=C(NNc1ccc(Cl)cc1)c1cccs1	11.5%	-12.5	-18.5	-3.7%	2.4	1.2
CC(C)(/C=N/O)N(O)C=C1C=CC(=O)C=C1	4.3%	2.2	2.4	-8.1%	3.5	9.3
COc1cc2c(cc1OC)C1=C(C#N)CN(C3CCCCC3)CN1CC2	2.0%	3.7	-6.5	1.9%	-16.2	-0.7
CC(=O)Nc1cccc(C(=O)Nc2cccc3ncccc23)c1	-10.2%[15.4 µM]	-2.0	-3.8	5.2%	-2.2	0.0
Nc1ccccc1C(=O)NCC1(c2ccccc2)CCCC1	-0.6%[15.4 µM]	4.4	-0.8	-2.9%	6.7	8.8
COCCN(C(=O)COC(=O)c1cccs1)c1c(N)n(Cc2ccccc2)c(=O)[nH]c1=O	14.5%	2.3	-5.7	0.7%	3.8	9.2
COCCN1C=C2C(=O)C(C)(OC(=O)C3CCCC3)C(=O)C(c3ccccc3)=C2C=C1CCCC(=O)OC (stereo not drawn)	nt	-3.0	-4.7	-7.6%	-2.8	0.7
COc1cc(CC(=O)OCC(=O)N2C(C)CCCC2C)cc(OC)c1OC (stereo not drawn)	?	0.3	-8.2	-6.3%	0.0	0.2
CCCOc1ccc(-c2nn(-c3ccccc3)cc2/C=C2\SC(N)=NC2=O)cc1	28.3%[15.4 µM]	-1.7	-8.9	8.1%	-1.9	7.4
O=C(NCCC1=CCCCC1)C(=O)NCc1ccncc1	-35.6%[inhibitor]	-1.6	-4.5	2.6%	6.9	12.2
C/C(=N\Nc1ncc(Br)cn1)c1cccc([N+](=O)[O-])c1	20.5%	4.1	-3.2	-13.6%	-7.8	-1.8
CC(NC(=O)c1ccc(C(=O)c2ccccc2)cc1)c1ccc(S(N)(=O)=O)cc1 (stereo not drawn)	-7.1%[15.4 µM]	-1.8	-19.4	-9.5%	3.2	-1.1
CC(CC12CC3CC(CC(C3)C1)C2)NCc1ccccc1O (stereo not drawn)	-11.0%	0.9	1.2	-1.0%	-8.8	-7.2
COc1ccccc1N1CCN(C(=O)c2n[nH]c3ccccc23)CC1	15.7%	4.0	-6.8	-3.3%	14.2	-0.7
S=C(NCCc1ccccc1)NN=C1CCCCCC1	-10.5%[15.4 µM]	-1.9	0.5	1.5%	0.0	2.1
O=c1c2[nH]c3ccccc3c2ncn1CCN1CCOCC1	1.4%	-1.4	5.2	-1.1%	7.5	6.5
CN(CC(=O)Nc1ccc(F)cc1)CC(=O)N1CCCCCC1	-17.1%	0.7	-1.0	10.9%	0.0	11.5
Cc1cc(C)cc(N(CC(=O)NC2CCCC2)C(=O)CCC(=O)Nc2nccs2)c1	-2.9%	-3.0	-3.7	-3.4%	7.1	1.0
O=C1c2ccccc2C(=O)N1CC#CCN1CCN(C(c2ccccc2)c2ccccc2)CC1	?	-7.1	-56.9	-12.6%	-9.7	-4.9
N#Cc1ccccc1COC(=O)CCCC1=NS(=O)(=O)c2ccccc2N1	-2.4%	6.6	-8.2	2.0%	2.2	0.7
CCOC(=O)c1cccnc1SCc1cc(=O)n2ccccc2n1	?	1.0	-7.9	13.3%	3.7	-2.0
COc1ccc(C(=O)Nc2ccc(S(=O)(=O)Nc3nccnc3OC)cc2)cc1	-4.1%	1.3	-51.6	-13.1%	-11.0	16.7
COC(=O)C1=C(C)NC2=C(C(=O)CCC2)C1c1cn(Cc2ccc(Cl)cc2Cl)nc1-c1ccccc1 (stereo not drawn)	12.2%	-3.2	-7.4	-28.1%	-1.7	1.4
CCC(=O)Nc1ccc(NC(=O)CSc2nnnn2C(C)C)cc1	-19.8%	-1.6	4.7	9.2%	5.3	1.9
CC1CC(C)CN(C(=O)COc2ccc([N+](=O)[O-])cc2Cl)C1 (stereo not drawn)	-15.5%	-8.3	-5.4	-12.1%	2.0	-4.5
S=c1[nH]nc(COc2ccccc2)n1/N=C/c1ccc(Cl)cc1	8.2%	1.1	-3.9	-23.7%	-11.3	-5.5

The list goes on; the last 2 above are carried over.
SMILES	gsp agonist	D2 agonist	D2 potentiator	gsp antag	Six1-Eya2 inh	CtBP-E1A inh
CC1CC(C)CN(C(=O)COc2ccc([N+](=O)[O-])cc2Cl)C1 (stereo not drawn)	-15.5%	-8.3	-5.4	-12.1%	2.0	-4.5
S=c1[nH]nc(COc2ccccc2)n1/N=C/c1ccc(Cl)cc1	8.2%	1.1	-3.9	-23.7%	-11.3	-5.5
Cc1ccc(C)c(NC(=O)CSc2n[nH]c(-c3ccncc3)n2)c1	-3.9%	0.9	1.6	-4.1%	0.5	6.4
O=C(CCN1C(=O)/C(=C/c2ccc(F)cc2)SC1=S)NC1C=CS(=O)(=O)C1 (stereo not drawn)	-14.6%	0.7	-8.1	4.9%	2.1	nt
CCOc1ccc(NC2c3ccccc3C(=O)N2c2ccc(Cl)cn2)cc1 (stereo not drawn)	29.3%	-4.9	-3.7	-3.5%	-0.8	0.0
CCOC(=O)N1CCN(C(=O)CN(c2ccc(OCc3ccccc3)cc2)S(C)(=O)=O)CC1	?	1.8	-2.7	-6.4%	3.8	10.1
COc1ccc(S(=O)(=O)N(C)c2ccc(C(=O)N3CCCC3)cc2)cc1OC	18.5%[15.4 µM]	-0.3	-3.7	8.2%	32.8	4.0
Cc1ccc(C)c(S(=O)(=O)N2CCC3(CC2)OCCN3S(=O)(=O)c2cccs2)c1	22.5%[15.4 µM]	-1.1	6.8	-3.6%	0.5	9.6
CN1CC(=O)Nc2ccc(Br)cc2C1=O	11.0%	-4.7	-14.5	-0.9%	0.8	nt
CC(=O)NC(CC(=O)Nc1nc(C)cs1)c1ccccc1 (stereo not drawn)	19.3%	-0.7	10.4	3.4%	2.8	nt
CC(=O)Nc1ccc(OCC(O)CN2CCCCC2C)cc1 (stereo not drawn)	6.2%	-0.2	12.1	3.8%	1.9	-9.0
COc1ccc(-c2csc(NC(=O)CSCc3c(C)noc3C)n2)cc1OC	-7.5%	4.9	23.6	?	-14.9	-22.8
O=C(CN1CCN(S(=O)(=O)c2ccccc2)CC1)NCc1ccccc1	?	-3.4	-6.8	-2.2%	8.5	5.3
O=C1CCCCCCCCCC/C(=N\O)CCCO1	18.5%[15.4 µM]	-0.2	-9.1	-2.0%	-2.3	1.6

Compound profiles, from the list above:
Results for CN(CC(=O)Nc1ccc(F)cc1)CC(=O)N1CCCCCC1 → gsp agonist = -17.1%; D2 agonist = 0.7; D2 potentiator = -1.0; gsp antag = 10.9%; Six1-Eya2 inh = 0.0; CtBP-E1A inh = 11.5
Results for CC1CC(C)CN(C(=O)COc2ccc([N+](=O)[O-])cc2Cl)C1 (stereo not drawn) → gsp agonist = -15.5%; D2 agonist = -8.3; D2 potentiator = -5.4; gsp antag = -12.1%; Six1-Eya2 inh = 2.0; CtBP-E1A inh = -4.5
Results for CC(=O)Nc1ccc(OCC(O)CN2CCCCC2C)cc1 (stereo not drawn) → gsp agonist = 6.2%; D2 agonist = -0.2; D2 potentiator = 12.1; gsp antag = 3.8%; Six1-Eya2 inh = 1.9; CtBP-E1A inh = -9.0

Further compounds follow:
SMILES	gsp agonist	D2 agonist	D2 potentiator	gsp antag	Six1-Eya2 inh	CtBP-E1A inh
O=[N+]([O-])c1cc(F)c(N2CCOCC2)cc1N1CCCCC1	-6.5%	-1.1	-8.9	1.4%	-22.2	-18.7
CCN(CC)S(=O)(=O)c1ccc2c(c1)N(CC(=O)NCCc1ccc(S(N)(=O)=O)cc1)C(=O)CO2	-2.9%[15.4 µM]	-2.8	-1.3	11.6%	9.5	-6.5
C[C@H](CO)N1C[C@H](C)[C@@H](CN(C)C(=O)Nc2ccc3c(c2)OCO3)Oc2ccc(NC(=O)CCN3CCOCC3)cc2C1=O	nt	-2.5	-5.5	3.9%	3.8	3.4
CCN(C[C@H]1N[C@@](Cc2ccccc2)(C(=O)OC)[C@H]2C(=O)N(Cc3ccccc3)C(=O)[C@@H]12)S(=O)(=O)c1ccccc1	nt	-1.2	nt	-16.5%	-11.8	-1.7
N#CCCC(CCC#N)(CCC#N)c1cc[n+](CCc2ccccn2)cc1	-15.6%	-2.5	-7.1	-1.7%	2.0	3.8
COc1ccccc1C1=Nc2cccc3cccc(c23)N1	-31.0%[inhibitor]	0.9	5.8	-16.9%	?	-25.3
CCOC(=O)C1CCN(S(=O)(=O)c2cn(C)cn2)CC1	9.2%	2.3	-3.8	-6.7%	1.7	9.0
CCc1ccc(C(O)c2ncc(-c3ccc(C(F)(F)F)cc3)[nH]2)cc1 (stereo not drawn)	nt	9.2	-7.2	nt	4.6	-21.5
Cc1ccc(F)cc1NC(=O)N1CCNC(=O)C1CC(=O)Nc1cc(Cl)ccc1Cl (stereo not drawn)	-1.0%[15.4 µM]	-2.9	-5.3	5.4%	3.8	-4.1
CC(=O)Nc1cc(C)c(S(C)(=O)=O)c(C)c1	10.1%	1.5	-16.1	5.5%	6.9	-0.3
